VDR inhibitor: blocks the human vitamin D receptor; VDR-SRC2-3 peptide fluorescence polarization, 2 h; Potency, µM, for inactives: max response, negative = inhibition, most hits filed as inhibitors; hit rate 0.93% among 400,000; active means well fitted inhibition curve with a large enough effect; inconclusive means small, poorly fitted or top-dose-only effect, or another doubt; inactive means no such curve, though single readings can be large or run the other way; further: series mostly up to about 120 µM
Target sequence (P11473 whole entry, looked up): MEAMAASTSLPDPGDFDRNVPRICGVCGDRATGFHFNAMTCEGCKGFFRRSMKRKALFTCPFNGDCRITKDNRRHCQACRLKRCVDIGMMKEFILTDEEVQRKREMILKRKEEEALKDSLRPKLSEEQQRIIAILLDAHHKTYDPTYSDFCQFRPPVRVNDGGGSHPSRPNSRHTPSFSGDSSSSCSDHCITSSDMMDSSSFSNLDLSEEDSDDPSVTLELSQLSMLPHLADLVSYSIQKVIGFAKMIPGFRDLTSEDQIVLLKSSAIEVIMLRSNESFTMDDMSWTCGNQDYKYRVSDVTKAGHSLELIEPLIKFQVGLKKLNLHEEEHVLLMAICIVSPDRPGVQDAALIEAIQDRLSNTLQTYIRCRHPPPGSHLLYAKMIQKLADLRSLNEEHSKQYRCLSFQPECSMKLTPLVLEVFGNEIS
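FP read-out; VDR + SRC2-3 coactivator peptide; 23 nl compound by pintool; 2 h RT incubation; reagents held at 4 deg C, protected from light.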
* marks the source's active call; other numbers are inactive results; ? = inconclusive; [ ] = dose if it differs, or a comment. On the % scale 0 is the no-effect control and ±100 the full control effect; potency means the concentration at half of the fitted maximal effect.

SMILES | VDR inhibitor
Fc1ccc2c(c1)C(c1ccc(N3CCOCC3)cc1)=NNC(c1cccs1)=N2 | 0%
NS(=O)(=O)c1ccc(NC(=O)CN2C(=O)C3C4C=CC(C4)C3C2=O)cc1 (centres undefined) | 2%
CC(Nc1cc(N2CCOCC2)ccc1[N+](=O)[O-])c1ccccc1 (centres undefined) | -4%
COCCn1c(SCC(=O)OCc2ccccc2)nc2c1c(=O)[nH]c(=O)n2C | -2%
COc1cccc(-c2nc(CS(=O)(=O)c3ccccc3)no2)c1 | 0%
COc1cc(/C=N/NC(=O)c2nc(-c3ccccc3)n(-c3ccccc3)n2)ccc1O | -18%
Cc1cc(-c2n[nH]c(=S)n2/N=C/c2c[nH]c3ccccc23)n[nH]1 | 9%
CCOc1cc(C=O)ccc1OCC(=O)NC(C)(C)C | -11%
O=C1NC(=O)C(c2cccs2)(c2cccs2)N1 | -7%
CC1(c2nnc(-c3ccc(F)cc3)o2)CC(c2ccccc2)=NO1 (centres undefined) | -21%
CC1(OC(=O)CCc2ccccc2)C(=O)C=C2C=C(c3ccc(C#N)cc3)N(C3CCCC3)C=C2C1=O (centres undefined) | -15%
C[C@@H](NC(=O)Cn1cnc2c(OCc3ccccc3)ncnc21)c1cccc2ccccc12 | 2%
O=C(CCN1C(=O)/C(=C\c2cccs2)SC1=S)Nc1ccc(C(=O)O)cc1 | 6%
CCOC(=O)C1=C(C)NC(=O)N(C(C)=O)C1c1ccc(Cl)cc1 (centres undefined) | 15%
COc1ccc(NC(=O)COC(=O)c2ccc3c(c2)OCCO3)cc1OC | -5%
COc1ccc(-c2nc3ccc(NC(C)=O)cc3c(=O)n2Cc2ccccc2)cc1COc1ccc(NC(C)=O)cc1 | -9%
c1ccc2oc(-c3ccc4nc[nH]c4c3)nc2c1 | 2%
COc1ccc(CCC(=O)NCc2nc3cccnc3n2Cc2ccc(OC)cc2)cc1 | 12%
O=C(Cc1c(F)cccc1Cl)Nc1cccnc1 | -2%
Cc1cnc(C(=O)OCc2ccc(C#N)cc2)cn1 | 4%
O=C(O)c1ccc2c(=O)n3c(nc2c1)/C(=C/c1ccc(OC(F)F)cc1OC(F)F)CC3 | ?
COc1ccc(C2=NN(C(=O)c3cccnc3)C(c3ccccc3)C2)cc1 (centres undefined) | 16%
CN1CCN(C(=O)C23CC4CC(CC(C4)C2)C3)CC1 | 12%
Cc1cc(C)nc(SSc2nc(C)cc(C)n2)n1 | 7.1µM*
COc1cccc(OC)c1C(=O)OCC(=O)N(C)c1ccccc1 | ?
(list continues)
SMILES | VDR inhibitor
CCOc1ccccc1CN1CCC(n2nccc2NC(=O)CCc2ccccc2)CC1 | 14%
Cc1ccc(-n2nc(CO)c(C(=O)NCCc3ccccc3)n2)cc1 | 8%
COc1cc(NC(=S)NCc2ccco2)cc(OC)c1OC | 5%
Cc1cc(=O)oc2cc(OC(C)C(=O)NCCc3ccc(S(N)(=O)=O)cc3)ccc12 (centres undefined) | -18%
CN(C)c1ccc(CNC(=O)CCCN2C(=O)c3cccnc3Oc3ccc(Cl)cc32)cc1 | 21%
Cc1ccc(SCCNC(=O)CN(c2ccc3c(c2)OCO3)S(C)(=O)=O)cc1 | 3%
Cc1ccsc1CNCC(O)c1ccccc1 (centres undefined) | 19%
Cc1cc(=O)[nH]c(-n2[nH]c(C)cc2=O)n1 | -3%
C/C(=N\NC(=O)C(O)c1ccccc1)c1ccc(Cl)s1 (centres undefined) | -9%
O=C(NCCN1CCOCC1)C1CCN(c2ncnc3c2sc2cccc(F)c23)CC1 | 11%
CCc1cccc(C)c1NC(=O)c1cnn(-c2ccc(OC)cc2)c1C1CCN(C(=O)OC(C)(C)C)CC1 | 8%
O=C(NCC(c1ccccc1Cl)N1CCCC1)C1CCN(C(=O)Nc2ccccc2)CC1 (centres undefined) | 6%
CN(Cc1nc(Cc2cccc(C(F)(F)F)c2)no1)C1CC(C)(C)NC(C)(C)C1 | -2%
CCCCn1c(=O)[nH]c(=O)c2c1nc(-c1ccc(C)c([N+](=O)[O-])c1)n2CC | 12%
O=C(Nc1nccs1)c1cc([N+](=O)[O-])ccc1Cl | -1%
NC(N)=NC(N)=Nc1ccc(SC(F)(F)F)cc1 | ?
CCn1nc(C(=O)Nc2cccc(C(F)(F)F)c2)c(Cl)c1Cl | -11%
O=C(CSc1nnc(Cc2cc(=O)[nH]c(=O)[nH]2)n1-c1ccccc1)NCC1CCCO1 (centres undefined) | 5%
CC[C@]12c3[nH]c4ccc(Cl)cc4c3CCN1C(=O)[C@@H](CC(=O)NCCc1ccccn1)C[C@@H]2C(=O)N1CCN(C(=O)C2CC2)CC1 | -9%
Cc1ccc(N2CC(C(=O)Nc3c(C)n(C)n(-c4ccccc4)c3=O)CC2=O)cc1 (centres undefined) | 13%
C/C(=N\Nc1nncc2ccccc12)c1ccc(C(C)(C)C)cc1 | 11%
CCC(C)c1ccc(NC(=O)N2CCN(C(=O)C3CCCO3)CC2)cc1 (centres undefined) | 14%
Nc1c(-c2ccccc2)c(CSc2nc3ccccc3[nH]2)nn1-c1cccc(C(=O)O)c1 | 2%
O=C1c2sc3nc4n(c(=O)c3c2CCC1Br)CCCCC4 (centres undefined) | ?
Nc1nc(SCc2ccccn2)c2ncn(C3CCCC3)c2n1 | -15%
Next compounds
SMILES | VDR inhibitor
CC1(C)CC(=O)C(C(c2ccc(Br)cc2)C2C(=O)CC(C)(C)CC2=O)C(=O)C1 | 25µM*
Cc1cccn2c(=O)c3cc(C(=O)NCCCn4ccnc4)n(C)c3nc12 | 10%
CC(C(=O)N1CCCC1)N(C)CC(=O)Nc1cccc(F)c1 (centres undefined) | ?
O=C(c1ccc([N+](=O)[O-])s1)N1CCc2ccccc21 | 1%
CCN(C(=O)COC(=O)c1ccc(C)c(S(=O)(=O)N2CCOCC2)c1)C1CCS(=O)(=O)C1 (centres undefined) | -8%
O=C(Nc1ccc(Cl)cc1)c1ccc2c(=O)n3c(nc2c1)CCCCC3 | -3%
CN(C)C1(CNC(=O)COc2ccc(C(C)(C)C)cc2)CCCCC1 | 13%
NS(=O)(=O)c1cccc(NC(=O)CSc2nnc(-c3ccccc3)o2)c1 | -2%
O=C(c1cc2cc(C(F)(F)F)ccc2s1)N1CCOCC1 | 6%
Cn1c(=O)c2c(nc(NCC3CCCO3)n2Cc2ccccc2)n(C)c1=O (centres undefined) | 13%
O=C(CN1C(=O)NC2NC(=O)NC21)NC1CCCCC1 (centres undefined) | -14%
COc1ccccc1N(CC(=O)NCC1CCCO1)C(=O)CCC(=O)Nc1nccs1 (centres undefined) | 7%
Cc1cc(C)c(S(=O)(=O)Nc2ccc(-c3ccc(N4CCCCCC4)nn3)cc2)c(C)c1 | 8%
NC(=O)c1sc2nc(-c3cccs3)ccc2c1N | -9%
COc1ccc(C2C(C(=O)O)c3ccccc3C(=O)N2Cc2ccco2)cc1 (centres undefined) | -10%
Cc1cccc(Nc2nc(N)nc(-c3oc4ccccc4c3C)n2)c1 | 8%
O=C(Oc1cc(-c2ccccc2)no1)c1ccc(F)cc1 | -7%
COc1cc(N)cc(NC(=O)c2ccncc2)c1 | -5%
Cc1c(C(=O)N(Cc2cccs2)C2CCS(=O)(=O)C2)oc2ccccc12 (centres undefined) | 57%[activator]
CC(C)c1ccc(NC(=O)C2=NNC(=O)CC2)cc1 | 9%
O=C(Nc1ccccc1)c1ccc(NCCN2CCOCC2)c(S(=O)(=O)N2CCOCC2)c1 | -29%
CCCSCCCNC(=O)c1cc2c(s1)CS(=O)(=O)C2 | -9%
Nc1c(C(=O)NCc2ccco2)c2nc3ccccc3nc2n1CCc1ccccc1F | 0%
CCCN(CCC)S(=O)(=O)c1nc2nc(C)cc(C)n2n1 | 2%
O=C(Nc1nc(=O)c2ccccc2s1)c1ccc(F)cc1 | 71µM*
Continuation:
SMILES | VDR inhibitor
COc1ccc(CNC(=O)C(C)OC(=O)Cn2cnc3c2c(=O)n(C)c(=O)n3C)cc1 (centres undefined) | -12%
O=C(/C=C/c1ccc2c(c1)OCO2)Nc1cc(S(=O)(=O)N2CCOCC2)ccc1N1CCOCC1 | -15%
Cc1ccccc1Cn1c(=O)n(CCC(=O)NCc2ccco2)c(=O)c2sccc21 | -15%
Nc1ccc(-c2nc3c(Cl)cc(N)cc3[nH]2)cc1 | 3%
OC1=C(O)c2nc3cc(F)ccc3nc21 | -7%
O=C(NCCc1c[nH]c2ccccc12)C1CCCN(S(=O)(=O)c2ccccc2)C1 (centres undefined) | -4%
COCC(C)NC(=O)c1ccc(CN2CCc3ccccc3C2)cc1 (centres undefined) | -3%
COc1ccc(-c2csc(Nc3ccc(S(=O)(=O)Nc4cc(C)on4)cc3)n2)cc1 | -23%
O=C(O)Cc1ccc(C(=O)c2ccc(F)cc2)s1 | 9%
CCc1ccc(NC(=O)N2CCc3ccccc3C2)cc1 | 10%
N#CCCCCN1c2cccc3cccc(c23)S1(=O)=O | 4%
O=C1NCCN(Cc2ccc(Cl)c(F)c2)C1CC(=O)N1CCCO1 (centres undefined) | -1%
CSC1(SC2=NCCN2)SC2(NCCN2)S1 | -17%
CCCOC(=O)C1=C(C)NC(=O)NC1c1cccc2ccccc12 (centres undefined) | 16%
CCCn1cnc2cc(NC(=O)c3ccco3)ccc21 | 5%
COc1ccc(-c2cc(-c3ccc(OC)cc3)c(C#N)c(SC)n2)cc1 | 1%
COc1ccc(C(=O)NN/C(=N/S(=O)(=O)c2ccc(C)cc2)c2ccccc2)cc1 | 5%
COc1ccc(S(=O)(=O)N2CCOCC2)cc1NC(=O)c1ccc2c(c1)OCCO2 | -21%
O=C(Nc1ccc2c(c1)C(=O)OC2)c1ccc(Cl)cc1Cl | 3%
CCN(CC)C(=O)c1ccc(NS(=O)(=O)c2ccc(/C=C/C(=O)O)cc2)cc1 | ?
CCOc1ccc(NC(=S)N2CCC(c3ccc(C)cc3)C2)cc1 (centres undefined) | 0%
CC(=O)c1sc(-c2ccccc2)cc1NS(=O)(=O)c1ccc(C)cc1 | -9%
O=c1c2nc(Br)n([C@@H]3O[C@@H]4CO[P@@](O)(=S)O[C@H]4[C@H]3O)c2nc2[nH]c(-c3ccccc3)cn12 | -1%
CC(C)C(=O)Nc1ccc2c(c1)oc1ccccc12 | -16%
Cc1oc2cc3oc(=O)c4c(c3cc2c1C)CCC4 | 2%
The list continues:
SMILES | VDR inhibitor
CC(CN1CCN(C)CC1)OC(=O)c1ccc(F)cc1 (centres undefined) | -22%
Cc1cc(C)n2nc(CNS(=O)(=O)c3ccc(F)c(C)c3)nc2n1 | -17%
O=C(c1ccc(Cn2cc(Cl)cn2)o1)N1CCN(Cc2ccc3c(c2)OCO3)CC1 | -13%
N#Cc1c(-c2ccccc2)cc(-c2ccccc2)nc1SCC(=O)O | ?
CCCN(C(=O)CSc1n[nH]c(-c2ccc(OC)cc2)n1)c1c(N)n(Cc2ccccc2)c(=O)[nH]c1=O | -1%
CCCC(=O)Nc1nc2ccc(C(=O)OCC)cc2s1 | 11%
Cc1ccnc(NC(=O)CCC(=O)c2cc(C)sc2C)c1 | 19%
COc1ccc(C=O)cc1COc1c(F)c(F)cc(F)c1F | -5%
COc1ccccc1CCC(=O)NC1CCCN(c2ccc(C(F)(F)F)cn2)C1 (centres undefined) | -9%
COc1ccc(CC(=O)Nc2ccc(C(=O)NC(C)(C)C)cc2)cc1 | 8%
CN(C)c1ccc2c(-c3ccccc3)c3ccc(=[N+](C)C)cc-3oc2c1 | 45µM*
Cc1cc(NC(=O)CCNS(=O)(=O)c2ccc3c(c2)oc(=O)n3C)ccc1Br | -11%
CC1(C)NC(=O)N(CN2C(=O)NC(C)(C)C2=O)C1=O | 7%
c1ccc(NC2=NCCN2CC2CCCCC2)cc1 | -27%
COc1ccc(S(=O)(=O)N(CC(=O)NCc2ccccn2)Cc2ccccc2)cc1 | 0%
COC(=O)NCc1cc2cc(Cl)ccc2[nH]1 | 5%
O=c1c(-c2ccc(O)cc2)coc2cc(OC3OC(CO)C(O)C(O)C3O)cc(O)c12 (centres undefined) | -10%
O=C(c1cccc(F)c1)N1CCN(C2CCCCC2)CC1 | 7%
Nc1nnc(CC(=O)Nc2ccccc2)s1 | -1%
CCOc1ccc(Nc2nnc(-n3nc(C)cc3C)c3ccccc23)cc1 | 21%
COc1ccc(OCC(O)CNCc2ccco2)cc1 (centres undefined) | -12%
CN1C[C@@H]2C[C@@H](c3ccc(C#CC(C)(C)O)s3)N3CCC[C@@]23C1=O | 22%
Cc1ccc(C2(c3noc(CN4CCC(c5ccncc5)CC4)n3)CCCC2)cc1 | 1%
Cc1ccc(S(=O)(=O)n2nc(OC(=O)c3cccs3)cc2N)cc1 | -10%
Cc1ccc(C)c(S(=O)(=O)Nc2cc3c4c(c2)CCC(=O)N4CCC3)c1 | 7%
O=C(N/N=C/c1ccccc1Cl)c1n[nH]c2c1CCCC2 | 12%
Cc1cccc(-n2nc3c(c2NC(=O)c2ccc(S(=O)(=O)N4CCOCC4)cc2)CSC3)c1C | 0%
Cc1nc(-c2ccccc2)cc(-c2ccccc2)n1 | -18%
O=C(NC1CCS(=O)(=O)C1)c1ccc(Br)s1 (centres undefined) | 11%
CC(C)Cc1ccc(CN2CCCC(NC(=O)Cn3cnnn3)C2)cc1 (centres undefined) | -7%

Some of the compounds tested; rates above refer to the full screens.
